CSC inhib = blocks cancer stem cells; cancer stem cell-like cells viability, luminescence; inhibition, % at 7.5 µM; 1.1% of 300,000 active; AID 2717;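 active = mean at 75% or more and at least half the replicates too; inconclusive = mean and replicates disagree; tested in HMLE shEcad cells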;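 also: 0% = median of negative and 100% = median of positive control wells; the first replicate is given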
PABP polyA inh = PABP-poly(A) binding inhibition; inhibition, % at 35 µM; AID 2014; 1% of 290,000 active; PABP-poly(A) RNA binding, fluorescence polarization;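 active = 50% or more with normal probe brightness, or confirmed in later tests; inconclusive = above 50% with abnormal brightness, or retests that disagree; inactive = below 50% or failed in later tests; about a fifth of its hits are not listed in these tables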;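 also: calls also rest on retests at 20 µM and on dose response follow-up; controls were probe without protein and protein plus probe with vehicle; some compounds called inactive have numbers as strong as hits; many hits fall short of the cut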
Target sequence (P11940 whole entry, looked up): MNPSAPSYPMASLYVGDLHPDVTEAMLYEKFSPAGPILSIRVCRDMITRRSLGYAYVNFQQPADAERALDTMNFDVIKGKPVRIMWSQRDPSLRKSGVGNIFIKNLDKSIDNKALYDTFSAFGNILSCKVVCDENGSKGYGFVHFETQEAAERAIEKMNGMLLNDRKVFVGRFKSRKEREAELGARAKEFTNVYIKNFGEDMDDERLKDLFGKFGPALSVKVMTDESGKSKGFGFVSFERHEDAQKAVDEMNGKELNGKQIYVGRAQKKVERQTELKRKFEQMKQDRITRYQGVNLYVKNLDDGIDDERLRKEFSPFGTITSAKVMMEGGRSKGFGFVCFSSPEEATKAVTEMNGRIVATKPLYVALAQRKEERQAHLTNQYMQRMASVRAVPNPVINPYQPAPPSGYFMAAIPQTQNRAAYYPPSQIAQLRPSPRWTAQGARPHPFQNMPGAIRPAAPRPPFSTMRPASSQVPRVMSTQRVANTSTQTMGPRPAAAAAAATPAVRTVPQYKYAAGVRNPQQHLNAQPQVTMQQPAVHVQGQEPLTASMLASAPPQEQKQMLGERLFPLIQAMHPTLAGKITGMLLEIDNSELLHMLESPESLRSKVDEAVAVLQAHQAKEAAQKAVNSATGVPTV
MT1-MMP act inh = MT1-MMP (human) activation inhibition; P50281; HT1080 RFP-PRO-GFP cells, GFP/RFP ratio fluorescence, overnight; percent of plate control window, DMSO zero; GFP/RFP ratio change, % at 20 µM; 0.061% of 360,000 active; AID 651647;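 active = GFP/RFP ratio change of at least 30% with cell ATP level not reduced by more than half and red fluorescence within 50% of control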; also: strong numbers were not always called active
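Assay system: HT1080 RFP-PRO-GFP cells. Benchmarks: DMSO vehicle wells and RFP-L50D-GFP reporter cell wells. Times: overnight cell settling, then overnight compound exposure, 37 °C, 5% CO2. Compound: 20 µM single dose, 1% DMSO. Read-out basis: GFP/RFP fluorescence ratio.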
Rce1 inhib = inhibitors of yeast Ras-converting enzyme; yeast membranes, quenched prenylated peptide cleavage fluorescence; 0.27% of 290,000 active; calls only; Q03530; AID 2563;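 active = fall in fluorescence gain of 50% or more versus controls, with final raw signal at or below 3038400; inconclusive = same 50% fall but final raw signal above 3038400; inactive = fall in fluorescence gain under 50%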;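 also: plate controls were neutral control wells for no effect and wells lacking membranes for full effect; tested at 10 µM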
Env fusion inh = blocks HIV Env-driven cell-cell fusion | AID 651610 | inhibition, % at 12.3 µM | HeLa-JRFL Env/CEM21 cell fusion, luciferase | 1.1% of 360,000 active;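 active = mean replicate inhibition score of at least 50 and every replicate individually at or above 50; inconclusive = only one of the two criteria met; inactive = mean below 50 and not all replicates reaching 50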;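 also: 0% = plate neutral controls and 100% = maraviroc near 300 nM; one replicate is shown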
UUG fidelity = alters start codon recognition fidelity in yeast; activity score, % at 18.7 µM; 0.13% of 350,000 active; S. cerevisiae UUG-firefly luciferase reporter, luminescence/redox ratio;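 active = replicate mean at a twofold rise or more, about +100% in these data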;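 also: firefly luciferase made from a UUG start codon reports start codon fidelity; reporter light over untreated wells divided by growth signal over untreated wells; some hits fall short of that in this replicate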
eIF4H inh = inhibitors of RNA binding by human eIF4H | Q15056 | eIF4H fluorescence polarization binding assay | inhibition, % at 35 µM | 0.94% of 290,000 active;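 active = 50% or more with normal probe brightness, or confirmed in later tests; inconclusive = above 50% with abnormal brightness, or retests that disagree; inactive = below 50% or failed in later tests; about a fifth of its hits are not listed in these tables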;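 also: calls also rest on retests at 20 µM and on dose response follow-up; 0% = protein and probe with vehicle and 100% = probe without protein; strong numbers were not always called active; many hits fall short of the cut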
MT1-MMP act inh RFP = further read-out of MT1-MMP act inh, marked with its call; RFP signal change, %; measured here: RFP expression control read;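 0 = vehicle wells; hits needed this value within 50% of zero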
Numbers without * were called inactive; i = inactive; ? = inconclusive; · = no result given; & = joins results of further samples; [ ] = dose if it differs, or a comment.

SMILES	CSC inhib	PABP polyA inh	MT1-MMP act inh	MT1-MMP act inh RFP	Rce1 inhib	Env fusion inh	UUG fidelity	eIF4H inh
CCOC(=O)c1cccc(NC(=O)C2CCCN(S(=O)(=O)c3c(C)n[nH]c3C)C2)c1 (stereo unspecified)	-11.3	-4.3	6.4	-3.6	i	·	-0.8	-9.4
COc1ccccc1CN1C(=O)c2ccccc2C1C(=O)NC1CCC(C)CC1 (stereo unspecified)	-3.4	-12.6	-0.8	-1.0	i	12.7	·	-7.7
CC1Cc2ccccc2N1C(=O)CSc1nnc(-c2ccccc2)c(-c2ccccc2)n1 (stereo unspecified)	1.1	-13.1	0.0	-8.6	i	?	-8.7	-9.4
O=C(CSc1ncn[nH]1)Nc1nsc(-c2ccccc2)n1	-5.9	7.3	-2.0	-2.8	i	8.7	·	-4.0
CCOC(=O)C1=C(C)N=c2s/c(=C\c3cccc(OCC(=O)O)c3)c(=O)n2C1c1ccccc1OC (stereo unspecified)	14.0	7.6	-0.4	3.2	i	11.6	-22.9	-11.5
CC(=O)Nc1cccc(NC(=O)c2ccc3c(c2)CCN3S(=O)(=O)c2ccccc2)c1	4.9	3.6	7.6	-4.4	i	4.1	-3.2	-0.5
COc1ccc(OCCCC(=O)Nc2ccc(S(=O)(=O)N3CCOCC3)cc2)cc1	-11.7	·	4.8	-7.9	·	-2.8	-3.9	·
Cc1ccc(NC(=O)CSc2nnc(C)n2-c2ccccc2)cc1	-0.4	-7.7	-0.7	3.0	i	·	-15.2	-5.6
COc1cccc(C2CC(c3ccccc3Cl)n3nnnc3N2)c1 (stereo unspecified)	-7.0	-1.5	6.3	-1.7	i	·	-11.8	-0.6
Cc1ccc(C(=O)COc2nc(C)cc(C)c2C#N)cc1	8.6	-7.3	1.9	-1.6	i	8.0	-9.7	0.4
Cn1c(NC(=O)c2cccnc2)nc2ccccc21	-6.6	0.1	6.9	-0.9	i	·	·	-1.7
COc1ccc(C(C#N)Nc2ccccc2C)cc1 (stereo unspecified)	15.5	2.7	1.0	-3.0	i	31.3	·	-8.7
Cc1cccc(C(=O)OCC(=O)NC(=O)NCc2ccccc2)c1	-23.0	·	-0.6	1.6	·	·	-15.1	·
CCCCN1C(=O)C(CC(=O)NCCCN(C)C)CC(C(=O)N(C)C)=C1C (stereo unspecified)	·	·	3.1	5.7	·	-0.9	-9.1	·
COC(=O)c1ccc(CN2CCN(CC(C)C)C(CCO)C2)cc1 (stereo unspecified)	14.3	8.2	2.9	8.2	i	-5.1	-6.3	5.9
CCOC(=O)N1CCN(C(=O)CNC(=O)Cc2ccc(Cl)cc2)CC1	-3.4	5.9	2.1	5.7	i	·	·	-8.8
CCc1ccc(/C=N/NC(=O)c2cc(-c3ccccc3OC)nc3ccccc23)s1	·	-7.3	-4.6	-2.0	i	19.9	-13.3	0.0
COc1ccc(CN2CCSCC2)c(OC)c1C	0.6	1.2	-0.9	1.7	i	4.1	-7.1	8.5
Cc1cc(/C(N)=N/OC(=O)Nc2cccc(C(F)(F)F)c2)no1	2.9	1.1	3.1	1.7	·	-9.0	-3.6	-6.8
CCOC(=O)c1ccc(NC(=O)Nc2ncc(Cl)cc2Cl)cc1	-8.8	1.2	·	·	i	·	·	-2.9
Cn1cnnc1-c1cccc(NS(=O)(=O)c2ccc(N3CCCC3=O)cc2)c1	2.4	-10.8	4.9	1.7	i	·	-22.8	-3.6
O=C(OCc1nc2ccccc2s1)c1ccco1	-9.8	-13.6	4.1	6.8	i	-32.6	-6.1	-8.3
COc1cc2nnn(-c3ccncc3)c2cc1OC	·	·	-1.4	0.9	·	4.0	-5.7	·
O=C(CN(Cc1ccccc1)S(=O)(=O)c1ccc2c(c1)OCCO2)N/N=C/c1cccc(Br)c1	-32.6	-9.1	3.3	-7.6	i	-15.4	·	-7.6
CCOC(=O)CCn1c(=S)n(CCC(=O)OCC)c2ccccc21	-8.5	0.8	0.7	0.7	i	7.6	·	-7.6
CCNC(=S)NS(=O)(=O)c1ccc(CC)cc1	-8.3	1.1	-3.8	2.6	i	19.4	-47.8	-10.5
OCC1(CCOc2ccccc2)CCN(Cc2ccccc2C(F)(F)F)CC1	16.6	-6.4	1.5	3.1	i	-0.6	-7.1	1.4
COc1ccc(Nc2nc(N)nc(CSC(=S)N3CCOCC3)n2)cc1	-10.5	2.6	1.5	4.2	i	-1.7	-14.7	3.8
O=C(CSc1nc(-c2ccccc2)c(-c2ccccc2)[nH]1)NCCN1C(=O)CSC1=O	26.5	-10.6	-2.2	-12.3	i	·	·	-6.8
Cc1cccc(Nc2nc(N)c([N+](=O)[O-])c(N3CC(C)OC(C)C3)n2)c1 (stereo unspecified)	7.2	6.2	0.2	-18.9	i	-9.7	-9.0	17.2
CCC(=O)N(NC1=NS(=O)(=O)c2ccccc21)S(=O)(=O)c1ccc(C)cc1	-7.0	11.4	-0.7	0.7	i	-5.3	·	-0.8
CCc1nc2ccccc2n1CCC(C)C	-14.4	-4.3	0.7	-1.0	i	·	-13.8	-7.5
Cc1ccccc1N(Cc1cc(=O)[nH]c2ccccc12)C(=O)CCl	22.0	14.2	-6.1	-3.7	i	41.3	-12.9	1.8
Cc1noc(C)c1NC(=O)N(C)C[C@H]1OCCCC[C@@H](C)Oc2ccc(NC(=O)c3ccccc3)cc2C(=O)N([C@H](C)CO)C[C@@H]1C	·	·	1.4	6.7	·	22.2[16.7 µM]	19.6&-9.1	·
Cc1ccccc1Cn1c(CN2CCN(C(=O)c3ccco3)CC2)nc2c1c(=O)n(C)c(=O)n2C	-12.0	-3.3	2.8	-0.4	i	12.5	0.4	-13.5
C=CCc1cc(C)ccc1OCC(O)CN1CCN(c2ccccc2)CC1 (stereo unspecified)	22.1	5.8	-2.7	-0.1	i	·	-18.0	5.2
CCC(Cc1ccccc1)NS(=O)(=O)c1c(C)nc2scc(C)n2c1=O (stereo unspecified)	-8.7	·	2.6	0.2	i	2.0	-14.1	·
Cc1csc(NC(=O)C(C)Oc2ccc(Cl)cc2C)n1 (stereo unspecified)	7.4	·	-6.8	-11.8	·	3.2	12.1	·
O=[N+]([O-])c1ccccc1Nc1ccccc1[N+](=O)[O-]	·	·	0.1	-5.0	·	5.1	-17.3	·
CCCSc1nsc(SCCC)c1C(N)=O	-5.6	17.5	4.4	0.8	i	·	-15.9	-6.6
COc1ccc(-c2cc(C(F)(F)F)nc(SCCC(=O)N3CCCC3)n2)cc1	-5.5	1.1	-5.4	-8.2	i	-135.9	-14.8	-0.8
Cc1cccc(OCc2nc(-c3cccnc3)no2)c1	6.0	-5.2	2.0	0.7	i	·	-28.4	6.2
Cc1c(CCOC(=O)CC23CC4CC(CC(C)(C4)C2)C3)sc[n+]1Cc1ccc([N+](=O)[O-])cc1	50.3	26.1	3.9&-6.4	1.6&-2.0	i	-8.5	1.3	-14.0
Cc1ccc(-c2nnc3n2N=C(c2ccccc2Br)CS3)cc1	-8.5	-3.0	-6.3	-5.2	i	-14.6	-51.7	-6.6
Cc1cc(C)n2nc(C(=O)NCCc3ccccc3)nc2n1	-3.6	-8.3	0.9	1.8	i	·	-10.5	-11.0
CCOc1ccc(N(CC(=O)NC2CCCCC2)C(=O)CCCC(=O)Nc2ccccn2)cc1	·	1.5	2.8	4.6	i	10.2	-11.7	-10.7
COc1cc(Nc2ccccn2)cc(C(=O)Nc2cccc(C(F)(F)F)c2)c1	13.0	-4.7	0.0&3.8	-17.5&-10.5	i	1.8	-5.2&-6.0	-0.9
Cc1cnc(CNC(=O)c2ccc3oc(Cc4ccc(Cl)cc4)nc3c2)cn1	2.5	2.6	0.9	-6.0	i	-1.8	-26.6	-3.8
C=CCn1ccc2c([N+](=O)[O-])cccc2c1=O	-11.7	-7.3	1.2	6.5	i	-1.3	·	5.0
CC(CCc1ccccc1)NC(=O)c1cncc(Br)c1 (stereo unspecified)	-0.3	-4.3	7.2	3.5	i	·	-6.6	-6.3
OC(CNCc1ccccc1)COCc1ccc(Cl)cc1 (stereo unspecified)	33.4	8.5	1.7	6.2	i	5.6	1.6	-3.4
CN(C)CCCNC(=O)c1cc(C(=O)Cc2ccc(Cl)cc2)c[nH]1	34.9	1.7	-3.4	1.0	i	-2.0	-14.4	-2.3
CCn1c(SCC(=O)Nc2nc(C)cs2)nnc1-c1cccnc1	1.0	3.4	-3.1	-1.5	·	5.8	-12.1	-18.2
C[C@H](CO)N1C[C@H](C)[C@H](CN(C)C(=O)c2ccc3ccn(C)c3c2)OCc2cnnn2CCCC1=O	·	·	1.6	2.7	·	19.3	-13.3&-7.5	·
CCOC(=O)NC(Nc1nnc(C)s1)(C(=O)OCC)C(F)(F)F (stereo unspecified)	-8.8	4.4	0.8	2.1	i	·	-17.9	0.2
COc1cc(S(=O)(=O)Nc2ccc(C(=O)NCC(=O)O)cc2)ccc1NC(C)=O	-6.7	6.3	-2.2	0.3	i	1.8	-14.8	-3.5
CCN(CC)Cc1cc(O)c(CN(CC)CC)cc1O	·	-3.3	-9.8	4.8	i	10.5	·	?
COCCNC(=O)c1cn(Cc2c(F)cccc2Cl)nn1	-11.7	-1.1	3.4	3.9	i	·	·	-2.3
CC(C)(C)c1ccc(C(=O)NCCCNC(=O)c2ccccn2)cc1	·	4.3	3.0	1.9	i	10.8	-0.3	-6.1
COc1cc(C(=O)NCCC2=CCCCC2)cc(OC)c1OC	·	4.5	4.7	2.8	i	0.6	-10.4	-5.5

Other entries
SMILES	CSC inhib	PABP polyA inh	MT1-MMP act inh	MT1-MMP act inh RFP	Rce1 inhib	Env fusion inh	UUG fidelity	eIF4H inh
Cc1ccccc1S(=O)(=O)NCC1CCCO1 (stereo unspecified)	-15.5	-8.6	2.6	-0.5	i	-16.4	-16.5	-9.9
NS(=O)(=O)c1ccc(N2CCN(CCOc3ccc(Cl)cc3)CC2)nc1	-0.5	5.8	-2.6	-24.0	i	45.2	-37.3	3.8
COC(=O)CN1C(=S)N(c2ccc(Cl)cc2)C(=O)C1CC(=O)Nc1ccc(Cl)cc1 (stereo unspecified)	24.4	-2.0	2.2	0.6	i	·	1.7	4.6
COc1ccc(C2=CSC3=NCCN23)cc1Cl	-3.6	-5.5	3.0	-3.1	i	0.9	-23.7	-6.6
COc1ccc(-n2nnnc2CNC(=O)c2ccc(S(=O)(=O)N3CCOCC3)cc2)cc1	·	·	-0.5	-0.5	i	-4.8	-22.8	·
CC(C)(C)C(=O)Nc1ccc2c(c1)OCCOCCOc1cc(NC(=O)C(C)(C)C)ccc1OCCOCCO2	-5.9	6.8	3.8	3.8	i	-26.6	·	15.6
c1ccc(Oc2ccc3ccccc3n2)cc1	-1.2	1.2	1.0	2.8	·	-16.5	·	-7.2
COCCCN1C(=O)c2ccc(C(=O)N3CCN(c4ccccc4OC)CC3)cc2C1=O	12.0	-1.0	1.7	5.4	i	-5.5	-11.6	-1.8
COc1ccc(-n2nnc3c(=O)n(CC(=O)OCc4ccccc4)cnc32)cc1	-3.8	-2.0	0.7	9.1	i	-57.7	15.2	-0.7
Cc1ccc(-c2cc(C(=O)NC3=NCCS3)c3cc(Br)ccc3n2)o1	-4.4	31.1	·	·	i	·	·	24.8
Cc1cc(Cl)ccc1Oc1cccc(C(=O)/C(C#N)=C/N(C)C)c1	·	-5.3	-4.7	1.1	i	4.3	-2.2	-2.1
COc1cc(NC(=O)CCS(=O)(=O)c2ccc3nc(C)sc3c2)cc(OC)c1OC	-5.7	6.3	-0.3	2.1	i	1.4	-6.3	-8.8

Source: PubChem (several laboratories)
